Screening results from PubChem.
GIV Gai3 FP: inhibitors of GIV GBA-motif binding to rat Galpha-i3; Galpha-i3/FITC-GIV peptide fluorescence polarization, 90 min; stronger effect = lower value; scaled: aluminum fluoride 0%, vehicle 100%; percent of control (FP), % (concentration not given with the values); 210,000 tested, 0.42% active; AID 1224905;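 active = replicate mean at 85% of control or lower, very high polarization wells dropped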;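 also: wells of about 15 µL received 100 nL stock; the first replicate is given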
Target sequence (P08753 whole entry, looked up): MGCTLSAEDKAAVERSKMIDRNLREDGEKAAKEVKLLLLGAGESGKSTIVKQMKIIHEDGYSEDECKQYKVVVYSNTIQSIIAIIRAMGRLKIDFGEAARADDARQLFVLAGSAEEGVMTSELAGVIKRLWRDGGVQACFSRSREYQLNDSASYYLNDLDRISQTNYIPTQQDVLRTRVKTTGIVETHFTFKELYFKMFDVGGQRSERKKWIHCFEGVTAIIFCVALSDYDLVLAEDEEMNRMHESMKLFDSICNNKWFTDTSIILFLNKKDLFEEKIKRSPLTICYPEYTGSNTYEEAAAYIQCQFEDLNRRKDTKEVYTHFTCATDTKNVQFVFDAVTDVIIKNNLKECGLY
HCMV UL50-53 inh: disrupts HCMV UL50-UL53 complex binding; inhibition, % (test concentration not listed); 190,000 tested, 0.15% active; HTRF UL50-UL53 interaction, normalized percent inhibition; AID 1918969;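 active = both replicates at 50% or more, plus weaker picks with an unusually low signal ratio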;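 also: stock transfer was 100 nL into about 20 µL; 0% = negative control wells and 100% = wells with untagged competitor protein; inactives centre near -12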
Sa growth inh: S. aureus growth inhibition; S. aureus RN4220 growth, OD600, 20 h, 42 °C; stronger effect = lower value; relative growth, % (concentration not given with the values); 170,000 tested, 0.53% active; AID 720641;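 active = growth at 42 °C up to 50% and 20 or more points under that at 30 °C, or under 10% at both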;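 also: 300 nL library stock went into each well; scaled to the means of positive and negative controls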
Sa growth inh second temp: second read-out of Sa growth inh, no call of its own (marks repeat the call); relative growth, %; measured here: growth at 30 °C;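 optical density after 20 h as mean of two plates; 100% = untreated growth and lower means inhibition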
* hit, by the source's call; . = not tested or not shown.

entry	SMILES	GIV Gai3 FP	HCMV UL50-53 inh
1	COc1cc2c(cc1OC)C(C(=O)O)C(c1cc(Br)c(O)c(OC)c1)N(C)C2=O (stereo not given)	99.5	-13.3
2	COCCNCC1C(Oc2ccc(Cl)cc2)C(=O)N1c1ccccc1C (stereo not given)	99.5	-34.2
3	CCCc1nc2nc[nH]n2c(=O)c1NC(=O)Nc1ccc2c(c1)OCO2	105.6	3.3
4	CC(=O)Nc1ccc(N=Cc2ccc(N3CCOCC3)cc2)cc1	.	-4.8
5	N#Cc1ccc(C2NC(=O)NC3=C2C(=O)OC3)cc1 (stereo not given)	97.1	-0.7
6	CCOC(=O)C1=C(CN(C)Cc2ccccc2)NC(=O)NC1c1ccc(OC(C)C)cc1 (stereo not given)	104.0	-22.0
7	Cc1ccc(S(=O)(=O)N2CCCc3cc(NC(=O)c4cccc(Cl)c4)ccc32)cc1	99.2	.
8	CCN(CC)c1ccc2cc(C(=O)Nc3cccc(OC)c3)c(=O)oc2c1	103.3	-7.7
9	NCc1ccc(C(F)(F)F)cc1	.	-7.8
10	COc1ccc(-c2cc(O)cc3sc(=O)oc23)cc1	.	-21.3
11	O=C1CCN(S(=O)(=O)c2ccc(Cl)c(Cl)c2)CC1	.	-20.3
12	CCN(CC)c1ccc(C2CC(=O)C3=C(C2)Nc2ccccc2N(C(C)=O)C3c2ccco2)cc1 (stereo not given)	101.2	-7.7

entry	Sa growth inh	Sa growth inh second temp
1	.	.
2	.	.
3	.	.
4	99.2	94.5
5	98.1	80.5
6	96.4	72.3
7	108.0	92.3
8	97.4	103.1
9	106.0	87.2
10	67.7	41.2
11	78.8	92.4
12	.	.

(next part)
entry	SMILES	GIV Gai3 FP	HCMV UL50-53 inh
13	Cc1cccc(C(CC(=O)N2CCCC2)n2cccc2)c1 (stereo not given)	103.0	-27.2
14	CCOC(=O)c1sc2ncn(CC(=O)Nc3ccccc3Cl)c(=O)c2c1C	102.6	-28.9
15	CCN1C(=O)c2cc(C(=O)NCCN3CCCCC3)nn2CC1(C)C(=O)NC1CCCC1 (stereo not given)	99.3	-4.0
16	COc1ccc(C(=O)N2CCN(CCCc3c[nH]c4ccc(F)cc34)CC2)cc1	101.0	-12.9
17	Cc1ccc2c(CNC3CCCCC3)c(C(=O)O)n(Cc3ccc(F)cc3)c2c1	106.2	.
18	CCOC(=O)c1cc(C(C)C)sc1NC(=O)COC(=O)c1ccc(C)o1	.	-2.2
19	CCOCC(=O)Nc1c(C(=O)Nc2ccccc2F)oc2ccccc12	105.0	-1.8
20	Cn1nc(C(F)(F)F)c(-c2ccccc2)c1NC(=O)CSCC(=O)O	95.6	1.8
21	CCN(CC)CCCNC(=O)C1CCCN(c2ncnc3onc(C)c23)C1 (stereo not given)	101.5	8.0
22	COc1ccc(-c2nc(N3CCCC3)[nH]c(=O)c2C#N)cc1	106.8	-4.1
23	N#CCOC(=O)c1ccc(Br)o1	.	-11.0
24	CCOCC(=O)N1CCC(C(=O)OCC)CC1	104.0	-14.8

entry	Sa growth inh	Sa growth inh second temp
13	98.0	79.5
14	.	.
15	.	.
16	92.0	74.1
17	110.3	93.6
18	114.7	88.0
19	114.5	91.9
20	103.8	90.2
21	.	.
22	101.6	82.4
23	98.7	90.7
24	120.5	95.8

Looked up by structure from above (3):
entry	SMILES	GIV Gai3 FP	HCMV UL50-53 inh
1	COc1cc2c(cc1OC)C(C(=O)O)C(c1cc(Br)c(O)c(OC)c1)N(C)C2=O (stereo not given)	99.5	-13.3
3	CCCc1nc2nc[nH]n2c(=O)c1NC(=O)Nc1ccc2c(c1)OCO2	105.6	3.3
24	CCOCC(=O)N1CCC(C(=O)OCC)CC1	104.0	-14.8

entry	Sa growth inh	Sa growth inh second temp
1	.	.
3	.	.
24	120.5	95.8

Next entries:
entry	SMILES	GIV Gai3 FP	HCMV UL50-53 inh
25	Nc1nonc1-c1noc(CCCN2C(=O)c3ccccc3C2=O)n1	98.2	-9.6
26	Cc1cc(NC(NC(=O)N(C)C)(C(F)(F)F)C(F)(F)F)no1	102.9	7.0
27	Cc1cc(/C=C/C(=O)Nc2nccs2)c(C)n1-c1ccccc1	.	-25.6
28	c1ccc2c3c([nH]c2c1)CCC3	116.1	-35.5
29	Cc1cc(S(=O)(=O)C(CNC(=O)c2ccccc2F)c2cccnc2)ccc1F (stereo not given)	102.9	-24.0
30	CC(Oc1ccc(C#N)cc1)C(=O)O (stereo not given)	.	-13.0
31	Cc1ccc(CCNc2ncnc3onc(C)c23)cc1	105.8	.
32	CCOc1ccccc1N1CC(c2nc3ccccc3n2CCOc2ccc(OC)cc2)CC1=O (stereo not given)	104.9	-13.5
33	O=C(c1ccc(N2CCCC2=O)cc1)N1CCc2ccccc2C1	.	-4.2
34	CC(C)(C)NC(=O)CN1CCN(Cc2c(O)c(C(=O)N3CCOCC3)cc3ccccc23)CC1	.	-15.4
35	CN(CCc1ccccn1)C(=O)c1cccc(Oc2ccccc2)c1	.	-1.7
36	CCCC(=O)Nc1ccc2c(C)cc(C)nc2n1	103.3	0.3

entry	Sa growth inh	Sa growth inh second temp
25	99.5	91.6
26	100.7	97.3
27	99.3	83.3
28	101.3	80.3
29	.	.
30	84.4	87.3
31	96.0	99.2
32	97.8	24.8
33	106.7	99.0
34	111.3	94.0
35	107.2	88.2
36	105.5	93.2

Remaining list, next part:
entry	SMILES	GIV Gai3 FP	HCMV UL50-53 inh
37	O=C(O)CS(=O)(=O)c1nc2ccccc2s1	100.0	12.6
38	COc1ccc(O)c(C(=O)c2cc(C#N)c(=O)n(-c3c(C)n(C)n(-c4ccccc4)c3=O)c2)c1	.	-36.0
39	COc1ccc(CNC(=O)c2cc(C(C)C)on2)cc1	101.0	.
40	Cc1oc(-c2cccc(Br)c2)nc1CN1CCC(C(=O)NCCc2ccc(Cl)cc2)CC1	102.5	.
41	Cc1ccc(C2=CC(c3ccccc3F)n3c(nc4ccccc43)N2)cc1C (stereo not given)	105.1	.
42	O=C(Nc1ccc(Cl)cc1)c1cc(S(=O)(=O)N2CCc3ccccc32)ccc1F	101.9	.
43	CCSc1ncc(S(=O)(=O)c2ccccc2)c(N)n1	98.8	-15.0
44	O=C(Nc1nc2ccccc2[nH]1)C1CC(=O)N(CCc2ccccc2)C1 (stereo not given)	.	1.6
45	CCOC(=O)c1ccc2c(c1)N(C(CC)C(=O)Nc1cccc(OC)c1)C(=O)c1ccccc1S2(=O)=O (stereo not given)	99.5	6.6
46	COc1ccccc1N1CCN(C(=O)CNS(=O)(=O)c2ccc(Br)s2)CC1	108.9	7.5
47	O=C(c1ccc(/C=C2\Sc3ccccc3N(Cc3ccccc3F)C2=O)cc1)N1CCN(C(=O)c2ccco2)CC1	105.4	-1.3
48	Cc1ccc(/C=N/NC=O)o1	.	-80.1

entry	Sa growth inh	Sa growth inh second temp
37	88.4	81.3
38	75.9	84.2
39	103.2	78.9
40	135.9	80.6
41	92.5	28.2
42	105.5	97.4
43	88.8	77.6
44	96.9	93.7
45	.	.
46	92.2	86.0
47	104.4	103.0
48	100.4	92.3

4 of the entries above in order of the GIV Gai3 FP value, ascending:
#	SMILES	GIV Gai3 FP	Sa growth inh second temp
45	CCOC(=O)c1ccc2c(c1)N(C(CC)C(=O)Nc1cccc(OC)c1)C(=O)c1ccccc1S2(=O)=O (stereo not given)	99.5	.
37	O=C(O)CS(=O)(=O)c1nc2ccccc2s1	100.0	81.3
42	O=C(Nc1ccc(Cl)cc1)c1cc(S(=O)(=O)N2CCc3ccccc32)ccc1F	101.9	97.4
47	O=C(c1ccc(/C=C2\Sc3ccccc3N(Cc3ccccc3F)C2=O)cc1)N1CCN(C(=O)c2ccco2)CC1	105.4	103.0

New compounds follow.
entry	SMILES	GIV Gai3 FP	HCMV UL50-53 inh
49	COC(=O)[C@@]1(C)CCCC2(C)c3ccc(C(C)C)cc3CCC21 (stereo not given in full)	100.0	.
50	O=C(CSc1nnc(-c2cccs2)n1-c1ccccc1)OC1CCS(=O)(=O)C1 (stereo not given)	.	-18.6
51	N#Cc1ccccc1NC(=O)C(=O)NCCc1csc(-c2ccc(C(F)(F)F)cc2)n1	102.7	.
52	CCC(Sc1nncn2c1cc1occc12)C(=O)Nc1ccc(C)c(Cl)c1 (stereo not given)	106.5	.
53	O=c1[nH]c2ccccc2cc1CN(c1ccccc1)S(=O)(=O)c1ccccc1	99.6	-11.3
54	CC(=NCc1ccco1)C1=C(O)c2ccccc2C1=O	99.2	.
55	O=C(Nc1cccc(F)c1)[C@H](Cc1ccccc1)N1Cc2ccccc2C1=O	101.9	.
56	CCOC(=O)Cc1ccc(NC(=O)N(Cc2ccc(CC)cc2)Cc2cn[nH]c2-c2ccc(OC)cc2)cc1	97.8	-13.6
57	COc1cccc(NC(=O)COC(=O)CCC2CCCC2)c1	.	-12.9
58	CC(OC(=O)CCN1C(=O)c2ccccc2C1=O)c1ccccc1 (stereo not given)	102.5	-2.6
59	Cn1nc(C(F)(F)F)c(-c2ccccc2)c1N1C(=O)C2C3C=CC(C3)C2C1=O (stereo not given)	100.5	6.2
60	O=C(CN1CCOc2ccccc21)NCc1ccc(Cl)cc1	103.7	-16.6

entry	Sa growth inh	Sa growth inh second temp
49	86.4	87.7
50	91.2	97.5
51	101.7	87.2
52	98.7	65.5
53	.	.
54	92.6	87.0
55	121.0	87.0
56	102.5	105.7
57	98.2	86.5
58	90.9	96.4
59	114.8	103.2
60	110.6	92.8

The list continues:
entry	SMILES	GIV Gai3 FP	HCMV UL50-53 inh
61	CNC(=O)CSc1nc2ccccc2c(=O)n1C1CCCCC1	104.4	-24.5
62	N#Cc1c(SCc2ccccc2F)nc(C(F)(F)F)c2c1CCC2	104.1	.
63	CSc1ccccc1NC(=O)CN(C)Cc1nnc(-c2ccccc2)o1	.	-28.2
64	CCCN1C/C(=C/c2ccc(OC)cc2)C(=O)/C(=C/c2ccc(OC)cc2)C1	97.9	.
65	COc1ccccc1N1CCN(S(=O)(=O)CCNC(=O)COc2ccc(F)cc2)CC1	107.9	.
66	C/C(=N\NC(=O)Cc1ccc(F)cc1)c1ccc(O)cc1	102.7	-2.5
67	CCOC(=O)c1cccc(-n2c(C)cc(C=C3C(=O)N(C)C(=S)N(C)C3=O)c2C)c1	112.7	0.5
68	CCOc1ccc2nc3c(c(C(=O)O)c2c1)CCCC3	.	-6.5
69	C#CCOc1ccc(-c2nnc(Nc3ccc(NC(C)=O)cc3)c3ccccc23)cc1	107.5	-38.4
70	c1cncc(-c2nnc3n2C2(CCCCC2)Cc2ccccc2-3)c1	94.0	-9.3
71	Nc1nonc1C(=O)NCCN=Cc1ccccc1O	106.0	-1.6
72	CCCN(S(=O)(=O)c1ccc(C)cc1)S(=O)(=O)c1ccc(Cl)cc1	.	-29.6

entry	Sa growth inh	Sa growth inh second temp
61	103.0	97.4
62	71.4	107.9
63	84.9	47.1
64	90.4	92.5
65	110.0	99.8
66	94.1	75.3
67	.	.
68	73.5	89.2
69	92.2	87.5
70	92.2	90.1
71	93.0	81.0
72	85.9	85.0

More compounds follow:
entry	SMILES	GIV Gai3 FP	HCMV UL50-53 inh
73	Cc1cccc(-c2noc(NC(=O)NNc3c(Cl)cccc3Cl)n2)c1	107.1	12.7
74	COc1ccc(CCNC(=S)N2CCCCC2C(N)=O)cc1 (stereo not given)	.	-21.3
75	CN(C(=S)Nc1ccccc1)C1CCC(C2OCCO2)CC1O (stereo not given)	108.9	.
76	N#C/C(=C\c1ccc(-c2ccc(C(=O)O)cc2)o1)c1nc2ccccc2[nH]1	-6.1*	-26.0
77	COc1ccc(C#N)c(S(=O)Cc2ccccc2)c1 (stereo not given)	.	-16.9
78	COc1ccc(CNCCSc2nnnn2-c2ccccc2)c(OC)c1	100.6	-27.6
79	COc1ccc(-c2nc(Cn3c(SCc4ccccc4F)nc4cccnc43)c(C)o2)cc1	106.1	.
80	CC(C)(C)C1CCC(OCC(O)CN2CCCCCC2)CC1 (stereo not given)	.	-11.3
81	COc1ccc(CNC(=O)C2(C)Cn3nc(C)cc3C(=O)N2c2ccccc2C)cc1 (stereo not given)	97.5	-9.5
82	CSc1nc(N)c(C(=O)Nc2ccc(N(C)C)cc2)s1	.	-35.6
83	CCc1ccc(CNC(=O)CCC(=O)N2CCCn3nc(C)cc32)cc1	103.5	-0.4
84	COc1cccc(CNC(=O)c2ccc3oc(=O)n(Cc4ccccc4)c3c2)c1	103.2	.
85	O=S(=O)(NCCNc1nccc(C(F)(F)F)n1)c1ccccc1	111.4	.
86	COc1ccc(/C=C/C(=O)NC(N)=S)cc1	.	-36.8
87	CCC(=O)Nc1nc2ccc(OC)cc2s1	.	-12.7

entry	Sa growth inh	Sa growth inh second temp
73	90.3	54.6
74	90.3	97.0
75	83.0	84.7
76	80.2	75.9
77	103.3	78.5
78	101.1	83.9
79	124.3	93.0
80	104.4	90.4
81	.	.
82	81.3	81.1
83	94.0	90.8
84	114.8	88.1
85	96.4	92.1
86	83.0	86.1
87	129.2	66.8

GIV Gai3 FP, what is marked active above
cpd | mol | GIV Gai3 FP | Sa growth inh second temp
76 | N#C/C(=C\c1ccc(-c2ccc(C(=O)O)cc2)o1)c1nc2ccccc2[nH]1 | -6.1* | 75.9

Random draw from the library (roughly 0.83% active in at least one column).
